Cruzain noTriton: blocks cruzain activity in detergent-free assay. P25779. Potency, µM, inactives show max response, negative = inhibition, hits mostly inhibitors. purified cruzain, Z-FR-AMC fluorescence, no detergent. actives 2.3% (n = 200,000);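 note: plate controls were enzyme without inhibitor for no effect and buffer without enzyme for full effect; nearly all actives have a fitted effect of over 40% in size; top concentration of the series not given in the record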
Target sequence (P25779 123-467 limits assumed): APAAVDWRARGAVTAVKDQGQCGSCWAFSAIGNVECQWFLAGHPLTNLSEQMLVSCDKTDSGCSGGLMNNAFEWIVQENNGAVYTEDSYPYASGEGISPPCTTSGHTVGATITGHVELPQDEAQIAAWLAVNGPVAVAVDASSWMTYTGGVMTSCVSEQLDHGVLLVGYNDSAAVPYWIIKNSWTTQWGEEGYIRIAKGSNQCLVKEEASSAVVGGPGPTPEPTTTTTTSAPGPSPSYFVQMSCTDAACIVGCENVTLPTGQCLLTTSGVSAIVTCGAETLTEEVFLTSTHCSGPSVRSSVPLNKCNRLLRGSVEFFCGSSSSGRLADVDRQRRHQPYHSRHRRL
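Purified cruzain at 1.5 nM, pre-incubated 15 min with compound at room temperature in 100 mM sodium acetate pH 5.5, 5 mM DTT, 0.00005% Triton X-100. Reaction started with 2 uM Z-FR-AMC; AMC fluorescence increase over 60 s gives rate.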
StopGo reporter: FMDV 2A StopGo reporter, luciferase signal | human cells with a luciferase reporter of 2A StopGo recoding; control for the full effect not named in the record | Potency, µM (titrated, usually from 57.9 µM), without a hit: top-dose signal change, negative = less light | actives 1.2% (n = 410,000); active = well fitted falling curve with a large enough effect; inconclusive = small, poorly fitted or top-dose-only effect; inactive = no such curve, though single readings can be large or run the other way; tested in HEK293T cells; note: % is set by controls: 0 for no effect and ±100 for the full control effect; nearly all actives have a fitted effect of over 45% in size; luciferase light after 4 h
RE007 growth inh: less growth of the S. pombe RE007 Vpr strain; S. pombe RE007 Vpr strain, BacTiter-Glo ATP luminescence, 24 h; control for the full effect not named in the record; actives 0.21% (n = 360,000); AID 651644; Potency, µM (titrated, usually from 92.2 µM), without a hit: at the top dose activity change, negative = less growth; active = well fitted falling curve with a large enough effect; inconclusive = small, poorly fitted or top-dose-only effect; inactive = no such curve, though single readings can be large or run the other way;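 note: % is set by controls: 0 for no effect and ±100 for the full control effect; nearly all actives have a fitted effect of over 50% in size; the assay follows cell death caused by Vpr and the record does not say whether a fall means rescue or toxicity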
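Fission yeast strain RE007, carrying one chromosomally integrated HIV-1 vpr copy, was seeded at OD 0.01 in PMG+AL medium with 23 nL pinned compound. After 24 h at 30 °C and 99% humidity, viability was read by BacTiter-Glo luminescence.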
Lassa entry inh: Lassa virus entry inhibition. Lassa virus pseudotype entry inhibition, cell reporter; control for the full effect not named in the record. Potency, µM (highest dose often 37.9 µM), for inactives: top-dose activity change, negative = inhibition, actives largely listed as inhibitors. actives 1.2% (n = 300,000). AID 540256; active means well fitted inhibition curve with a large enough effect; inconclusive means small, poorly fitted or top-dose-only effect, or effect the other way; inactive means flat fitted curve, though single readings scatter; tested in HEK293 cells; note: % is set by controls: 0 for no effect and ±100 for the full control effect; nearly all actives have a fitted effect of over 50% in size; luciferase read-out
MARV entry inh: Marburg virus entry inhibition; Potency, µM (highest dose often 37.8 µM), for inactives: at the highest dose activity change, negative = inhibition, actives largely listed as inhibitors; actives 1.8% (n = 300,000); AID 540276; Marburg virus pseudotyped entry inhibition, cell reporter; control for the full effect not named in the record; about a third of the inactives were read at about 46 µM; active = well fitted inhibition curve with a large enough effect; inconclusive = small, poorly fitted or top-dose-only effect, or effect the other way; inactive = flat fitted curve, though single readings scatter; tested in HEK293 cells; about a fifth of its hits are not listed in these tables; note: % is set by controls: 0 for no effect and ±100 for the full control effect; luciferase read-out
Cruzain Triton: cruzain (T. cruzi) inhibition with detergent; AID 1478; actives 0.43% (n = 200,000); purified cruzain, Z-FR-AMC fluorescence, 0.01% Triton; Potency, µM, for the others: max response, negative = inhibition, hits mostly inhibitors;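 note: plate controls were neutral wells for no effect and buffer without enzyme for full effect; nearly all actives have a fitted effect of over 40% in size; top concentration of the series not given in the record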
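15 min RT preincubation of 1.5 nM cruzain with compound, then 2 uM Z-FR-AMC added; kinetic AMC fluorescence, 60 s delta. Triton X-100 0.01%, pH 5.5.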
SARS PLpro yeast: SARS-CoV PLP inhibition in yeast; actives 0.19% (n = 330,000); Potency, µM (doses to about 32.9 µM), for the others: top-dose activity, positive = growth rescue; S. cerevisiae expressing SARS-CoV PLpro, growth rescue; control for the full effect not named in the record; AID 485353; active means well fitted rising curve with a large enough effect; inconclusive means small, poorly fitted or top-dose-only effect; inactive means no such curve, though single readings can be large or run the other way; note: 0% is about no effect; nearly all actives have a fitted effect of over 55% in size; growth read by luminescence after 48 h
NS1 inh: blocks influenza NS1 protein function; S. cerevisiae slowed by influenza A NS1, growth recovery by OD600; Potency, µM (highest dose often 46.1 µM), for inactives: at the top dose activity, positive = more growth; actives 0.4% (n = 270,000); AID 2326; active means well fitted rising curve with a large enough effect; inconclusive means small, poorly fitted or top-dose-only effect; inactive means no such curve, though single readings can be large or run the other way; note: nearly all actives have a fitted effect of over 50% in size
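Read-out: OD600 growth recovery of NS1-expressing budding yeast. Cells grown overnight at 30C in -URA glucose medium, washed, resuspended and diluted 1:100 in 2% galactose assay medium, pH 6.0. Same strain lacking NS1 served as positive control.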
An asterisk follows results filed as active; u = inconclusive; x = not tested or not shown; & = joins results of further samples; [ ] = dose if it differs, or a comment. Unless noted, calls come from the whole dose curve; as a rule, active = well fitted curve in the direction sought with a large enough effect; inconclusive = small, poorly fitted or top-dose-only effect, or another doubt; inactive = no such curve, though single readings can be large; an effect the other way counts as inactive or inconclusive. Potency is the fitted concentration of half-maximal effect.

SMILES	Cruzain noTriton	StopGo reporter	RE007 growth inh	Lassa entry inh	MARV entry inh	Cruzain Triton	SARS PLpro yeast	NS1 inh
CCn1cc(/C=N\NC(=O)Cc2ccc(Cl)cc2)cn1	4.6%	3.3%	-16.8%	-0.1%	24.1%	0.5%	30.5%	21.7%
CCCCn1c(N)c(N(CCOC)C(=O)c2nn(CC)c(=O)c3ccccc23)c(=O)[nH]c1=O	x	-19.6%	-4.7%	7.1%	0.6%	x	-1.0%	x
O=C(Nc1nnc(SCc2cc(=O)n3cc(Cl)ccc3n2)s1)c1cccc(F)c1	4.3%	-4.1%	x	-1.1%[46.1 µM]	x	1.0%	x	x
CCCCn1c(=O)c(C=Nc2ccc(Cl)cc2)c(O)n(Cc2ccco2)c1=O	-15.2%	-9.3%	-4.1%	0.9%	-27.1%	-24.1%	1.7%	10.1%
Cc1ccc(S(=O)(=O)NNC(=O)c2csnn2)cc1	-3.2%	-7.0%	5.7%	21.8%	20.8%	-1.8%	1.2%	6.6%
O=C(NCCO)Nc1ccc(Cl)cc1	x	5.0%	0.1%	0.3%[46.1 µM]	22.2%[46.1 µM]	x	0.6%	-3.8%
CCCCC(NC(=O)c1cccc(Br)c1)C(=O)O (stereo not drawn)	x	3.8%	0.2%	3.9%	18.4%[46.1 µM]	x	0.2%	0.6%
COc1ccc(-n2c(SCC(N)=O)nnc2-c2cccnc2)cc1	-3.4%	12.9%	244.4%	9.8%	1.1%	-0.3%	11.2%	-3.7%
CCOC(=O)N1CCC(N2CCN(S(=O)(=O)c3ccc([N+](=O)[O-])cc3)CC2)CC1	x	u	-8.6%	x	x	x	-2.5%	-5.2%
COc1ccc(CNC(=O)C2CCN(S(=O)(=O)c3ccc4c(c3)CCCN4C(C)=O)CC2)cc1	10.2%	-19.7%	x	-15.1%[46.1 µM]	x	-1.3%	x	x
COc1ccc(C2=C(C#N)C(=O)OC2)cc1	-0.8%	-1.5%	1.5%	-26.3%	-4.0%	-4.2%	1.5%	-6.6%
CCC1CN(C(=O)N2CCC(C(=O)NCc3ccccc3F)CC2)c2ccccc2O1 (stereo not drawn)	-1.6%	-28.4%	x	12.4%[46.1 µM]	x	-1.8%	x	x
O=C(/C=C/c1ccc(OCCCF)cc1)N1CCN(Cc2ccccc2)CC1	x	-23.0%	-18.0%	u	u	x	9.7%	-7.6%
Cc1ccc(N(C(=O)CCC(=O)Nc2cc(C)on2)C(C(=O)NC2CCCC2)c2ccncc2)cc1 (stereo not drawn)	10.3%	-8.4%	-23.0%	-12.0%	u	1.7%	-2.4%	-15.9%
N#Cc1nc(COc2ccc(F)cc2)oc1N1CCCC1	-2.9%	-12.8%	-14.3%	u	-0.6%	-0.2%	-2.4%	-14.9%
COC(=O)c1cc2oc(C)cc2n1CC(=O)N(C)c1ccccc1	6.4%	2.0%	-3.5%	-14.5%	-9.6%	1.9%	-0.2%	-7.2%
CCC1Oc2ccccc2N(CC(=O)NC2CCCCC2)C1=O (stereo not drawn)	x	-10.2%	-9.5%	5.4%	2.6%[46.1 µM]	x	-12.8%	0.5%
Cn1nnc2c(NCc3ccccc3Cl)ncnc21	-4.9%	-5.7%	x	10.3%[46.1 µM]	x	-1.6%	x	x
COc1ccc(CCN2C(=O)c3[nH]nc(-c4ccccc4O)c3C2c2cccc(OC)c2)cc1 (stereo not drawn)	u	-12.0%	x	u	12.6µM*	-3.0%	x	x
Cc1[nH]n(-c2ccccc2)c(=O)c1S(=O)(=O)c1ccccc1	-8.7%	21.6%	9.4%	7.0%	11.5%	1.4%	2.7%	-9.6%
O=C(COc1ccccc1)NC1CCN(Cc2ccccc2)CC1	-7.1%	5.8%	-2.3%	-2.3%	u	-3.0%	-4.5%	14.2%
CCN(CC(=O)NCc1ccc(Cl)cc1)C(=O)c1cc2ccccc2o1	x	-11.0%	7.0%	u	-7.8%[46.1 µM]	x	-9.1%	8.4%
Nc1nc(Cl)cc(Oc2ccc([N+](=O)[O-])cc2)n1	x	6.4%	22.3%	x	x	x	0.6%	3.7%
Cc1ccc(-c2ocnc2C(=O)Nc2nc(C)cs2)cc1	x	44.6%[activator]	-3.8%	-2.7%	-5.5%	x	-0.1%	14.8%
COc1ccc(C2C(C(=O)NCC3CCCO3)CCC(=O)N2c2ccc3c(c2)OCO3)cc1 (stereo not drawn)	3.8%	8.9%	14.0%	15.3%	-15.7%&-15.7%[46.1 µM]	-0.5%	-0.3%	-4.7%

Single entries from above.
O=C(/C=C/c1ccc(OCCCF)cc1)N1CCN(Cc2ccccc2)CC1 – RE007 growth inh: -18.0%
O=C(Nc1nnc(SCc2cc(=O)n3cc(Cl)ccc3n2)s1)c1cccc(F)c1 – Cruzain noTriton: 4.3%
CCn1cc(/C=N\NC(=O)Cc2ccc(Cl)cc2)cn1 – Cruzain Triton: 0.5%
Cn1nnc2c(NCc3ccccc3Cl)ncnc21 – Cruzain Triton: -1.6%
Cc1ccc(S(=O)(=O)NNC(=O)c2csnn2)cc1 – Cruzain Triton: -1.8%

Returning to the listing with the two entries that preceded the break.
SMILES	Cruzain noTriton	StopGo reporter	RE007 growth inh	Lassa entry inh	MARV entry inh	Cruzain Triton	SARS PLpro yeast	NS1 inh
Cc1ccc(-c2ocnc2C(=O)Nc2nc(C)cs2)cc1	x	44.6%[activator]	-3.8%	-2.7%	-5.5%	x	-0.1%	14.8%
COc1ccc(C2C(C(=O)NCC3CCCO3)CCC(=O)N2c2ccc3c(c2)OCO3)cc1 (stereo not drawn)	3.8%	8.9%	14.0%	15.3%	-15.7%&-15.7%[46.1 µM]	-0.5%	-0.3%	-4.7%
CCOc1ccc(Cl)cc1S(=O)(=O)N1CCC(C(=O)NCC2CCCO2)CC1 (stereo not drawn)	x	20.1%	11.9%	17.3%[46.1 µM]	u	x	-2.3%	7.6%
CC1CCN(CCNC(=O)C2CCCN(c3ncnc4c3nc3n4CCCCC3)C2)CC1 (stereo not drawn)	x	12.9%	-9.7%	18.5%[46.1 µM]	u	x	4.4%	-16.1%
c1ccc2nc(OCCN3CC3)ccc2c1	x	23.2%	-7.3%	u	u	x	0.1%	7.3%
O=C(C1=C[C@@H](c2ccc(Br)cc2)C[C@@H](OCCCCO)O1)N1CCOCC1	x	2.5%	6.2%	x	x	x	-1.6%	0.7%
CC(CN1CCCCC1)OC(=O)c1ccccc1Cl (stereo not drawn)	-3.1%	-9.5%	-1.2%	-16.3%	6.1%	-1.8%	7.0%	2.7%
FC(F)(F)c1cccc(CNC2CCN(Cc3ccccc3)CC2)c1	x	-23.5%	-7.8%	u	u	x	1.0%	-15.5%
O=C(c1cc(COc2ccc(F)cc2Cl)on1)N1CCN(C2CCCCC2)C(=O)C1	x	-8.9%	-11.6%	u	u	x	-9.5%	-106.9%
COc1cccc(C2NC(CC(C)C)(C(=O)O)C3C(=O)N(Cc4ccccc4)C(=O)C23)c1O (stereo not drawn)	-13.9%	-14.5%	-4.1%	19.2%	7.0%	-1.6%	0.5%	7.0%
Cc1ccc(NC(=O)c2ccc(S(=O)(=O)NCc3cccnc3)cc2)cc1C	x	2.1%	4.5%	-9.4%	14.1%[46.1 µM]	x	0.7%	6.5%
Cc1cccc(Nc2nc(CC(=O)O)cs2)c1	x	1.1%	-24.5%	4.7%	10.1%	x	-11.1%	x
COC(=O)CSC1=C(C#N)C(=O)NC(c2ccccc2)S1 (stereo not drawn)	-14.5%	7.94µM*	-11.6%	-18.9%	19.0%	-6.4%	5.4%	6.2%
CCOC(=O)CC(NC(=O)C(Cc1ccc(N(CCCl)CCCl)cc1)NC(C)=O)C(=O)OCC (stereo not drawn)	x	-29.6%	-11.6%	u	u	x	0.4%	-15.8%
O=C(NC(=S)Nc1cccc(-c2ccc(CO)o2)c1)c1cccs1	x	19.8%	-5.3%	x	x	x	-1.2%	-13.8%
COc1cc(C2c3c([nH]c(=O)[nH]c3=O)Nc3ccc4ccccc4c32)cc(OC)c1OC (stereo not drawn)	x	-11.8%	18.7%	u	-29.4%[46.1 µM]	x	1.4%	x
O=C1CCC(=O)N1c1cccc(-c2nc3ccccc3o2)c1	-3.2%	21.7%	0.9%	x	7.4%	-0.1%	11.2%	-10.5%
O=C(c1c(Cl)nc2sccn12)N1CCCc2ccccc21	-5.5%	x	-3.3%	13.0%	u	-2.6%	-7.3%	-9.0%
CCS(=O)(=O)c1ccc(O)c(N2C(=O)C3C4C=CC(C4)C3C2=O)c1 (stereo not drawn)	20.4%	x	-1.1%	16.6%	10.9%	2.0%	5.8%	1.1%
O=C(CC1OC(=O)c2ccccc21)Nc1cccc(S(=O)(=O)N2CCCCCC2)c1 (stereo not drawn)	x	0.0%	8.9%	-28.3%	5.3%	x	-7.0%	8.4%
O=C(Nc1ccc(Cl)cc1)C1CCCN(C2=NS(=O)(=O)c3ccccc32)C1 (stereo not drawn)	x	-15.7%	-2.9%	-2.8%	-24.2%	x	-3.4%	x
CC12CCC(C(NC(=S)NN)C1=O)C2(C)C (stereo not drawn)	x	2.0%	0.6%	7.4%[46.1 µM]	2.8%[46.1 µM]	x	x	x
COc1ccc(-c2noc(CCC(=O)N3CCN(c4ccccc4Br)CC3)n2)cc1	x	-10.5%	1.4%	x	3.8%	x	-8.1%	x
OC(CN1CCOCC1)Cn1c2ccccc2c2ccccc21 (stereo not drawn)	x	7.3%	-4.9%	x	x	x	0.6%	0.5%
O=C(CCNC(=O)c1ccc(Br)cc1)Nc1ccc(S(=O)(=O)Nc2ncccn2)cc1	x	-13.0%	-14.2%	17.9%[46.1 µM]	-2.8%	x	8.3%	x
O=C(Cn1cnc2c(nnn2Cc2ccc(F)cc2)c1=O)Nc1ccc2c(c1)OCCO2	x	2.0%	7.6%	x	x	x	-1.5%	3.0%
CN1CCc2c(sc3c2C(=O)NC(c2cccc(OC(=O)c4cccs4)c2)N3)C1 (stereo not drawn)	-24.6%	31.7%[activator]	-12.7%	8.7%	u	-16.0%	12.8%	-17.2%

From PubChem BioAssay
